RN4220 kill = kills Staphylococcus aureus RN4220; S. aureus RN4220 growth, OD600, 16 h; inhibition, % (no concentration beside the values); actives 0.33% (n = 330,000);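 active means z-score of -3 or lower and OD600 up to 0.18 on both plates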;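 further: plate controls were untreated cells for no effect and reference antibiotic for full effect; stock transfer was 100 nL into about 80 µL; one replicate is shown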
Sa ugtP lethal = compounds lethal to S. aureus RN4220 ugtP deletion mutant; OD600 growth, 16 h; some inactives read as strong as hits; growth inhibition, % (no concentration beside the values); actives 0.54% (n = 330,000);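 active means z-score under -3 and OD600 up to 0.15 on both plates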;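 further: plate controls were untreated wells for no effect and antibiotic for full effect; wells of about 80 µL received 100 nL stock; the first replicate is given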
PrP 5UTR inh = inhibition of PrP 5' UTR reporter expression | cell-based PrP 5' UTR mRNA reporter, plate reader | inhibition, % (test concentration not listed) | actives 0.35% (n = 340,000);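 active means every replicate at 50% or more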;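 further: 0 = median of the neutral control wells; tested in H4 reporter cells; numbers are from one replicate; inactives centre near -14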
Mtb hypoxia rep = reduces hypoxia-regulated biosensor signal in M. tuberculosis. AID 1159583. actives 0.1% (n = 300,000). M. tuberculosis hypoxia-regulated fluorescent reporter, fluorescence. fluorescence inhibition, % (concentration not given with the values);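 active means 35 to 45% if threefold the growth effect, above 45% if 1.5-fold the growth effect; inactive means the rest, general growth blockers included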;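 further: wells of about 50 µL received 100 nL stock; 0% = vehicle wells and 100% = reference inhibitor wells; whole bacteria with a GFP reporter of the hypoxia response; strong numbers were not always called active; many hits fall short of the cut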
BJeLR lethal = kills HRASV12-expressing BJeLR cells; actives 0.17% (n = 300,000); BJeLR (HRASV12) viability, CellTiter-Glo ATP luminescence, 48 h; reference of the scale not given here; inhibition, % (test concentration not listed);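 active means replicate mean above 50%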;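 further: 50 nL library stock added to about 25 µL; numbers are from one replicate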
Bead autofluor = flagged as autofluorescent in microsphere protease counterscreen; compound autofluorescence counterscreen, microsphere flow cytometry; hits give high values; fluorescence intensity (test concentration not listed); actives 3.1% (n = 360,000); AID 624483;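 active means at least 3 SD above the mean of all compounds, about 16000 in these data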;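 further: 100 nL of 1 mM stock went into each well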
Mtb hypoxia rep growth = second read-out of Mtb hypoxia rep, no call of its own (marks repeat the call); growth inhibition, %; measured here: M. tuberculosis growth (absorbance);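 0% = vehicle and 100% = reference antibiotic; read after six days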
The depositor's hits bear a star; nt = no result given.

1) COc1ccc(C(C)=NNC(=S)NCCc2ccccc2)c(O)c1
2) CCc1nn(C(CC)C(=O)NCC(C)c2ccccc2)c(=O)c2cc3occc3n12 (stereo not drawn)
3) CC(C)CC(=O)OC(C)(C)C1Cc2c(ccc3ccc(=O)oc23)O1 (stereo not drawn)
4) COc1cccc(CN(C)CC(=O)Nc2sc3c(c2C#N)CCC3)c1
5) CS(=O)(=O)c1nc(-c2ccc(Br)cc2)cc(-c2ccccc2)c1C#N
6) O=C(c1cc2cc(Cl)ccc2o1)N1CCCCCC1
7) CCC(C)(C)C1CCC(=NNC(=S)Nc2cccnc2)CC1 (stereo not drawn)
8) Cc1nnc(C)c2c(C)n(-c3ccc(Cl)c(N)c3)c(C)c12
assay / entry	1	2	3	4	5	6	7	8
RN4220 kill	0.1	2.9	1.0	2.5	36	5.8	5.3	2.2
Sa ugtP lethal	-7	3	-4	-70	27	2	0	3
PrP 5UTR inh	nt	-14	nt	-27	-12	-56	-28	-16
Mtb hypoxia rep	7	14	6	9	17	18	8	-6
Mtb hypoxia rep growth	9	10	16	-4	16	15	4	-3
BJeLR lethal	nt	-10	nt	1	6	nt	-1	4
Bead autofluor	nt	5136	nt	3442	3920	5259	4466	3764

9) COc1ccc(NC(=O)c2c([N+](=O)[O-])c(C(C)(C)C)nn2C)cc1
10) O=C(O)c1ccccc1CSc1ncn[nH]1
11) CCCCC(CC)COP(=O)(OCC(CC)CCCC)OCC(CC)CCCC (stereo not drawn)
12) NC(=O)C1(Nc2ccccc2Cl)CCCC1
13) NC(=O)c1cc(S(=O)(=O)Nc2ccccc2)cs1
14) CCOC(=O)Cn1c2c(c(=N)c3c1CCC3)CCCC2
15) CCN(CC)C(=O)CN(c1cc2c(cc1OC)oc1ccccc12)S(=O)(=O)c1ccccc1
16) CCC1CCCCN1C(=O)c1cc2c(=O)n3cccc(C)c3nc2s1 (stereo not drawn)
assay / entry	9	10	11	12	13	14	15	16
RN4220 kill	5.5	7.8	-3.6	3.5	8.3	0.9	-0.2	4.9
Sa ugtP lethal	2	12	1	6	14	4	0	1
PrP 5UTR inh	-37	nt	-11	-20	-7	-3	-1	-32
Mtb hypoxia rep	13	13	5	9	8	18	nt	-5
Mtb hypoxia rep growth	6	9	13	8	-4	-4	nt	10
BJeLR lethal	-4	-4	nt	nt	1	10	-8	-2
Bead autofluor	4311	11092	5546	3079	3003	2409	5124	3902

Quoted from the listing, six compounds:
11) CCCCC(CC)COP(=O)(OCC(CC)CCCC)OCC(CC)CCCC (stereo not drawn)
12) NC(=O)C1(Nc2ccccc2Cl)CCCC1
13) NC(=O)c1cc(S(=O)(=O)Nc2ccccc2)cs1
14) CCOC(=O)Cn1c2c(c(=N)c3c1CCC3)CCCC2
15) CCN(CC)C(=O)CN(c1cc2c(cc1OC)oc1ccccc12)S(=O)(=O)c1ccccc1
16) CCC1CCCCN1C(=O)c1cc2c(=O)n3cccc(C)c3nc2s1 (stereo not drawn)
assay / entry	11	12	13	14	15	16
RN4220 kill	-3.6	3.5	8.3	0.9	-0.2	4.9
Sa ugtP lethal	1	6	14	4	0	1
PrP 5UTR inh	-11	-20	-7	-3	-1	-32
Mtb hypoxia rep	5	9	8	18	nt	-5
Mtb hypoxia rep growth	13	8	-4	-4	nt	10
BJeLR lethal	nt	nt	1	10	-8	-2
Bead autofluor	5546	3079	3003	2409	5124	3902

Following part.
17) O=C(NCCN1C(=O)S/C(=C/c2cccnc2)C1=O)C1=NN(c2ccccc2)C(=O)CC1
18) Oc1ccc(/C=C/c2ccc3ccccc3n2)cc1
19) CCCCC(O)(C(NC=O)C(=O)OC)C(F)(F)F (stereo not drawn)
20) CN(CCc1ccccn1)Cc1ccc(Cl)cc1Cl
21) CCCN(CCC)S(=O)(=O)c1ccc(C(=O)Nc2nc3c(s2)CCc2ccccc2-3)cc1
22) COc1ccc(N(CC(=O)NCCSc2ccccn2)S(=O)(=O)c2ccccc2)cc1Cl
23) Cc1ccc(CNC(=O)C2CCN(c3nn4c(=O)cc(C)nc4s3)CC2)cc1
24) CCCOc1ccc(C(CC(=O)O)NS(=O)(=O)c2ccc(NC(C)=O)cc2)cc1 (stereo not drawn)
assay / entry	17	18	19	20	21	22	23	24
RN4220 kill	-5.1	-5.0	1.6	2.9	7.6	-0.6	-1.5	0.2
Sa ugtP lethal	-8	-5	2	0	2	0	5	-1
PrP 5UTR inh	-18	57*	-8	-20	-5	-33	-10	-2
Mtb hypoxia rep	-7	9	nt	9	13	3	2	nt
Mtb hypoxia rep growth	-4	0	nt	17	0	3	-4	nt
BJeLR lethal	nt	30	9	-5	2	5	-2	2
Bead autofluor	3827	4401	4233	24561*	1973	5559	4367	4516

25) COc1ccc(NC(=O)C2CCN(c3cc(C)nc(-c4ccccc4)n3)CC2)cc1
26) CC(=O)C(=NNc1ccc(C)cc1)N1CCOCC1
27) N#Cc1c(N=C/C=C/c2ccccc2)sc2c1CCCC2
28) COc1cccc(-c2csc(N3CCN(C(=S)Nc4ccc(Cl)cc4)CC3)n2)c1
29) O=C(/C=C/c1ccccc1)NCCSc1ccc(Cl)cc1
30) CCC(CC)C(=O)Nc1cccc(C(=O)N2CCOCC2)c1
31) COC(=O)c1cc(=O)nc2scc(C)n12
32) CCOC(=O)C1Cc2cc3c(cc2C1=O)CC(C(=O)OCC)C3=O (stereo not drawn)
assay / entry	25	26	27	28	29	30	31	32
RN4220 kill	-6.4	4.4	2.0	44	nt	1.4	-5.4	2.6
Sa ugtP lethal	8	11	-10	-24	nt	5	-2	9
PrP 5UTR inh	5	nt	nt	-26	-17	-11	-14	nt
Mtb hypoxia rep	nt	4	-5	5	nt	0	-1	nt
Mtb hypoxia rep growth	nt	-5	-13	-2	nt	4	1	nt
BJeLR lethal	4	nt	nt	4	1	-2	-6	6
Bead autofluor	3962	nt	nt	9773	3649	5764	6526	nt

33) COc1ccc2oc(N)c(C=O)c(=O)c2c1
34) COc1ccc(CN2CCC(n3nccc3NC(=O)C3CCCC3)CC2)c(OC)c1
35) O=C(NCc1ccc2c(c1)OCO2)C(=S)N1CCOCC1
36) CCOC(=O)N1CCC(NC(=O)C2CCN(S(=O)(=O)c3c(C)noc3C)CC2)CC1
37) C=CCN1C(=O)C(Cc2ccc(OC)cc2)SC1=Nc1ccc(C(=O)O)cc1 (stereo not drawn)
38) CCCCNCc1cc(Br)c(OCC(=O)NCc2ccccc2)c(OC)c1
39) CCOC(=O)c1c(NC(=O)c2noc(C)c2[N+](=O)[O-])sc(C(C)=O)c1C
40) Cc1ccc(S(=O)(=O)CCC(=O)Nc2sccc2C#N)cc1
assay / entry	33	34	35	36	37	38	39	40
RN4220 kill	3.8	4.6	2.6	-1.2	1.3	2.5	5.5	0.9
Sa ugtP lethal	-1	-5	3	9	2	9	3	2
PrP 5UTR inh	-1	-6	-3	-2	-17	1	14	-10
Mtb hypoxia rep	-15	1	-5	nt	-13	4	-3	3
Mtb hypoxia rep growth	3	12	-10	nt	-12	8	6	9
BJeLR lethal	-1	5	8	0	0	5	-6	7
Bead autofluor	6896	4876	4168	3406	8803	4692	2042	6080

41) CCOc1ccc(CNC(=O)C(C)n2nc(C)c3c(C)n(-c4ccccc4)nc3c2=O)cc1 (stereo not drawn)
42) O=C1NC(=O)N(Cc2ccc(F)cc2)C(=O)/C1=C\c1ccc(N2CCCC2)cc1
43) COc1ccccc1N(C)S(=O)(=O)c1ccc(C(=O)OC(C)C(=O)NCc2ccc3c(c2)OCO3)cc1 (stereo not drawn)
44) Cc1cc(C)c2c(=O)[nH]c(SCC(=O)c3ccc(C(C)C)cc3)nc2n1
45) COc1ccc(OC)c(NC(=O)[C@@H]2CCCN2C(=O)c2cccs2)c1
46) CC(C(=O)N1CCN(C)CC1)N1C(=O)c2ccccc2C1=O (stereo not drawn)
47) CC1=CC(c2ccccc2)n2nc(NS(=O)(=O)c3ccc(C)cc3)nc2N1 (stereo not drawn)
48) CC(=O)Nc1ccccc1S(=O)(=O)CC1CC1(Cl)Cl (stereo not drawn)
assay / entry	41	42	43	44	45	46	47	48
RN4220 kill	-0.9	6.0	7.4	11	1.4	-1.4	4.4	3.9
Sa ugtP lethal	6	6	-2	3	9	3	7	2
PrP 5UTR inh	-2	-13	-21	-16	-15	-14	-24	-27
Mtb hypoxia rep	15	17	11	17	5	0	7	-1
Mtb hypoxia rep growth	1	3	7	6	1	4	0	2
BJeLR lethal	2	8	-6	1	-19	-3	nt	-1
Bead autofluor	5903	5719	5073	8568	1976	11477	9844	3658

49) C1=C(CCNCc2ccccc2)CCCC1
50) CC=C(C)C(=O)N1CC2(CC(c3cccc(NC(=O)CCCCC)c3)=NO2)CC1C(N)=O (stereo not drawn)
51) Cc1c(Cl)cccc1N1CC(C(=O)Nc2nccs2)CC1=O (stereo not drawn)
52) Cc1[nH]c2ccccc2c1N=Nc1cccc(C(=O)O)c1
53) CCN(CC)c1ccc(CNCCc2ccccc2F)cc1
54) CC(c1ccccc1)n1cc(C(=O)NCCN2CCOCC2)nn1 (stereo not drawn)
55) COc1ccc(-n2c(CNC(=O)COc3ccc(Cl)cc3)n[nH]c2=S)cc1
56) COCCn1nnnc1C(c1ccc(Cl)cc1)N1CCN(C(=O)c2ccco2)CC1 (stereo not drawn)
assay / entry	49	50	51	52	53	54	55	56
RN4220 kill	6.0	3.5	8.5	8.7	6.0	-2.2	4.2	-2.0
Sa ugtP lethal	4	3	2	-15	12	1	-2	0
PrP 5UTR inh	-7	nt	-15	-69	-27	-13	-41	-12
Mtb hypoxia rep	14	7	14	4	4	nt	9	-15
Mtb hypoxia rep growth	11	9	9	8	14	nt	4	4
BJeLR lethal	0	nt	1	2	16	-5	-2	-3
Bead autofluor	23029*	nt	3284	2478	3472	4216	4675	3652

57) NC(=NOC(=O)c1ccccc1[N+](=O)[O-])c1ccccn1
58) CCOc1ccc(OCC)c(NC(=O)C2C3C=CC(O3)C2C(=O)NCc2ccco2)c1 (stereo not drawn)
59) Cc1ccc(F)c(NC(=O)c2cncn2-c2ccccc2)c1
60) C[N+]1(C)[C@@H]2CC[C@H]1CC(OC(=O)[C@@H](CO)c1ccccc1)C2 (stereo partly drawn)
61) CCCN(CCC)c1nc(N(CCC)CCC)[nH]c(=O)n1
62) Nc1ccn(CC(=O)NCc2ccccn2)c(=O)n1
63) O=[N+]([O-])c1cc2c(cc1CNCCc1ccc3c(c1)OCO3)OCO2
64) COc1ccc(CNC(=O)C2CCC(=O)N(CC3CCCCC3)C2)cc1 (stereo not drawn)
assay / entry	57	58	59	60	61	62	63	64
RN4220 kill	11	-1.7	0.8	2.4	3.6	6.8	nt	0.7
Sa ugtP lethal	4	-3	10	5	-5	-4	nt	8
PrP 5UTR inh	nt	-36	-4	-11	0	-6	3	-14
Mtb hypoxia rep	14	3	6	7	12	2	nt	5
Mtb hypoxia rep growth	9	-5	11	7	11	4	nt	-5
BJeLR lethal	nt	-3	8	-16	1	nt	2	-3
Bead autofluor	nt	12952	3582	3034	2395	3576	7709	6447

65) CCN(CC)S(=O)(=O)c1cccc(-c2n[nH]c(=S)n2C)c1
66) CCOC(=O)c1c(NN=Cc2cccnc2)n[nH]c1C
67) COC(=O)CCCC1=CC2=C(c3ccccc3)C(=O)C(C)(OC(=O)C3CCCC3)C(=O)C2=CN1CCCCO (stereo not drawn)
68) Cc1c(NC(=O)CN2C(=O)NC3(CCCC3)C2=O)c(=O)n(-c2ccccc2)n1C
69) Cc1cc(C)c(S(=O)(=O)N2CCN(C(=O)C3CC3)CC2)c(C)c1
70) CC1CN(C(C)CO)C(=O)c2cccc(NC(=O)Cc3ccccc3)c2OC1CN(C)Cc1ccc(C(=O)O)cc1 (stereo not drawn)
71) CCN(c1ccccc1)S(=O)(=O)c1cccc(C(=O)NCC(c2cccs2)N(C)C)c1 (stereo not drawn)
72) CCC(C)NC(=O)C(NS(=O)(=O)c1ccc2c(c1)c(=O)n(C)c(=O)n2C)c1ccccc1 (stereo not drawn)
assay / entry	65	66	67	68	69	70	71	72
RN4220 kill	5.1	3.4	0.9	1.0	4.5	4.2	7.0	0.8
Sa ugtP lethal	9	6	-1	3	16	-8	6	-1
PrP 5UTR inh	-6	nt	-11	-18	-4	nt	40	-14
Mtb hypoxia rep	13	6	7	4	12	8	11	-3
Mtb hypoxia rep growth	8	12	11	-3	3	6	-4	-6
BJeLR lethal	-5	nt	10	nt	nt	nt	-4	nt
Bead autofluor	3632	nt	4142	3322	5612	nt	3153	5636

Screening data from PubChem.
